T cruzi repl = inhibitors of intracellular T. cruzi growth, primary screen, luminescence, NIH3T3 host cells. T. cruzi beta-gal in NIH3T3, 90 h. inhibition, % (no concentration beside the values). 300,000 tested, 1.4% active. AID 1885, 2009;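 active = mean inhibition across valid replicates above about 55%, limit read from the data; inconclusive = mean below that limit but half or more replicates reach it; inactive = mean below it, under half of replicates reach it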;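 note: signal also drops with host cell toxicity which is not excluded here; 0% = plate median of DMSO wells and 100% = zero luminescence signal; higher percent means less beta-gal luminescence so fewer parasites; stock transfer was 50 nL into about 50 µL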
RanGTP-Imp inh = inhibitors of RanGTP-importin-beta interaction, primary screen, biochemical, FRET, CFP-Ran, YFP-importin-beta, homogeneous; Ran GTPase (GTP-bound) - importin-beta complex; cell-free CFP-Ran/YFP-importin-beta FRET ratio; inhibition, % (concentration not given with the values); 300,000 tested, 1.1% active;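 active = most replicates above 15%; inconclusive = exactly half above 15%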;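 note: 0% = DMSO wells and 100% = Ran loaded with GDP instead of GTP; wells of about 40 µL received 100 nL stock; the first replicate is given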
Vif A3G = inhibitors of Vif binding to APOBEC3G peptide, primary screen, biochemical, TR-FRET, GST-Vif 1-94, biotin-A3G peptide, dose response retest (AID 1117319); TR-FRET GST-Vif / biotin-A3G peptide binding; higher % means a stronger effect; test concentration not given here; strong numbers were not always called active; inhibition, %, or IC50 in µM where a hit was titrated; 260,000 tested, 0.57% active;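 active = above the screen mean plus three standard deviations and confirmed in dose response; inconclusive = results disagree or hit not tested in dose response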;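 note: Vif residues 1-94 fused to GST binding biotinylated APOBEC3G peptide 110-148; 0% = full assay without inhibitor and 100% = GST in place of GST-Vif; retest series ran down from 100 µM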
Calb FLC = C. albicans growth inhibition with fluconazole, primary screen, CaCi-2 strain, Alamar Blue fluorescence | C. albicans CaCi-2 (fluconazole-resistant clinical isolate) + fluconazole, 48 h | growth inhibition, % (test concentration not listed) | 300,000 tested, 0.57% active | AID 1979, 2009;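 active = most replicates above 75%; inconclusive = exactly half above 75%; inactive = most below 75%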;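 note: all wells also contain fluconazole at 8 µg/ml as a sub-toxic cotreatment; 0% = median of DMSO wells and 100% = median of geldanamycin control wells; wells of about 8 µL received 7.5 nL stock; the first replicate is given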
Beta cell apopt = inhibitors of cytokine-induced beta cell apoptosis, primary screen, luminescence; INS-1E cytokine-induced death, ATP luminescence, 48 h; percent of positive-control rescue, neutral wells zero; protection from apoptosis, % (no concentration beside the values); 300,000 tested, 0.8% active; AID 435005, 2010;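 active = all replicates at 75% or more, or half of them and the mean; inconclusive = half reach 75% but not the mean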;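 note: 0% = cytokine-treated negative control wells and 100% = positive control rescue; higher means more ATP so stronger rescue from cytokine killing; wells of about 40 µL received 100 nL stock; the first replicate is given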
Bfl-1 A1 inh = caspase 3/7 activation in MEF A1-2A-BIM cells, primary screen, A1 inhibitor project, cell-based, luminescence, HTS. Caspase-Glo 3/7 luminescence, 3 h; percent of clofoctol response, vehicle zero. caspase activation, % (concentration not given with the values). 330,000 tested, 0.066% active. AID 2462, 2010;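 active = over half of replicate activation scores above 10%, or exactly half above 10 with the replicate mean above 10; inconclusive = replicate mean below 10 yet half the replicates above 10; inactive = over half of replicates below 10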;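 note: wells of about 30 µL received 50 nL stock; many hits fall short of the cut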
AF4-AF9 inh = inhibitors of AF4 peptide binding to AF9, primary screen, biochemical, AlphaScreen, biotin-AF4 peptide, FLAG-AF9, single point; AID 651704, 2012; inhibition, % at 10 µM; Protein AF-9 (Homo sapiens), P42568; 350,000 tested, 0.47% active;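 active = every replicate reaching a set inhibition limit, whatever the replicate mean, cut at about 25% in these data; inconclusive = mean inhibition reaches that limit but some replicates miss it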;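 note: 0% = plate neutral control median and 100% = total signal loss; the record names both 10 and 1 µM as test concentration; the first replicate is given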
Target sequence (P42568 whole entry, looked up): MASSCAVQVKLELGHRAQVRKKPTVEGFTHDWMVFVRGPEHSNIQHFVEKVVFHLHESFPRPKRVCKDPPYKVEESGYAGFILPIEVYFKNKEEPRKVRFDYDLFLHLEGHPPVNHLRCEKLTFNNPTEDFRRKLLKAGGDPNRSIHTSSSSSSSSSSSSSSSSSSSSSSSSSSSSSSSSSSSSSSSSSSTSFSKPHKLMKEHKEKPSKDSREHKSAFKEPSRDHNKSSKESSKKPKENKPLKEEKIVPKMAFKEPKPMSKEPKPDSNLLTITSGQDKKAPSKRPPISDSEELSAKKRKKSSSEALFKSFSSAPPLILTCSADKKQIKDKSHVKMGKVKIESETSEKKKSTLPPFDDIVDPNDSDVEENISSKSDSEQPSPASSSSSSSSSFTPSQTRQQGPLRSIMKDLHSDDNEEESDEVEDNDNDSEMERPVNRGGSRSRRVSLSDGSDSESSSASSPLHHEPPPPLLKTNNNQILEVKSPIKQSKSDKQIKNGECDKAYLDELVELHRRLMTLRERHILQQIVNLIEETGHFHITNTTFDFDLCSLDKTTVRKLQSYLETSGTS
Ecoli rRNA inh = reduced GFP signal of wild-type E. coli, primary screen, bacterial rRNA inhibitor project, GFP/RFP fluorescence, OD600, single point; 350,000 tested, 1.6% active; GFP signal change (wild-type ribosome), % (no concentration beside the values); AID 720706, 2013; E. coli WT GFP vs humanized-ribosome RFP mutants, 24 h; hits give low values; DMSO median 0, no signal -100;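 active = significant combined selectivity score with lowered wild-type GFP, culture density cut under 30%, mutant RFP and density less affected; inactive = any of these conditions unmet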; note: one replicate is shown; some compounds called inactive have numbers as strong as hits
Ecoli rRNA inh OD600 = recorded beside Ecoli rRNA inh, whose call it bears; OD600 change, %; measured here: OD600 growth;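 optical density of the mix in the first replicate; 0 = DMSO median and -100 = no signal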
Ecoli rRNA inh RFP = also measured in Ecoli rRNA inh; calls as there; RFP signal change, %; measured here: RFP humanized mutant strains;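 first replicate; 0 = DMSO median and -100 = no signal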
* = called active by the depositor; ? = inconclusive; nt = not tested or not shown; & = joins results of further samples. A portion of the library; count on the stated rates, not on these rows.

SMILES | T cruzi repl | RanGTP-Imp inh | Vif A3G | Calb FLC | Beta cell apopt | Bfl-1 A1 inh | AF4-AF9 inh | Ecoli rRNA inh | Ecoli rRNA inh OD600 | Ecoli rRNA inh RFP
O=C(Nc1cccc(O)c1)c1cc2nc(-c3ccccc3)cc(-c3ccccc3)n2n1 | 2.1 | 1.1 | -12.9% | 7.0 | 9.9 | 1.0 | nt | nt | nt | nt
CC(C)CN(C(=O)c1nn(C)c(=O)c2ccccc12)c1nc2ccccc2s1 | -4.5 | ? | ? | 2.3 | -2.3 | -0.2 | nt | nt | nt | nt
CC1=CC(=O)C(C(C)=Nc2ccccc2Cl)C(=O)O1 (centres undefined) | -14.0 | -4.9 | -2.3% | 8.2 | -8.9 | -0.1 | -4.4 | 11.1 | 6.8 | 2.0
COc1cnc(-c2ccccc2)nc1Oc1ccccc1C | 23.4 | 5.9 | 8.6% | -4.3 | -3.0 | 0.6 | nt | nt | nt | nt
COc1ccc(S(=O)(=O)Nc2cccc3ccc(O)cc23)cc1 | -2.8 | ? | nt | 12.2 | 8.8 | 0.7 | 3.3 | -28.1 | -36.5 | -3.9
CS(=O)(=O)c1cnc(-c2ccccc2)nc1-c1ccc(Cl)c(Cl)c1 | 5.7 | 2.6 | -4.7% | -3.3 | -1.5 | -1.5 | -0.1 | 7.6 | 11.8 | 0.0
c1ccc(C(c2ccccc2)c2nc(-c3cccnc3)no2)cc1 | 40.6 | -4.4 | 2.8% | -14.7 | -2.5 | -0.4 | 3.5 | -39.5* | -28.6* | -5.8*
CC(C)c1ccccc1NC(=O)CSc1n[nH]c(=O)n1C1CC1 | nt | nt | nt | nt | 2.1 | 0.7 | -3.4 | 4.1 | 8.5 | -1.8
CC(C)(C)C#CCn1c(/C=[N+](\[O-])C2CCCCC2)nc2ccccc21 | -2.4 | 5.8 | nt | -6.8 | -9.3 | -0.1 | nt | nt | nt | nt
Cc1ccc2c(c1)c1c(n2C)C(=O)CCC1 | -4.8 | 6.3 | -2.0% | -21.0 | 0.3 | -0.3 | 10.0 | nt | nt | nt
O=C(NCCn1cccn1)c1ccc(OC2CCN(CCc3ccccc3)CC2)cc1 | -14.6 | 5.9 | 3.9% | -24.0 | -3.8 | 0.3 | -0.3 | 7.4 | 5.4 | 1.3
CC1(C)Cc2c(sc(NC(=O)C(=O)N3CCOCC3)c2C(N)=O)CO1 | -10.1 | 2.9 | nt | -6.0 | -2.3 | -2.0 | -1.1 | 1.5 | 6.5 | -0.6
Fc1cccc(Cc2noc(CN3CCN(c4cnccn4)CC3)n2)c1 | 4.3 | -1.2 | -9.8% | -3.9 | -5.3 | -0.4 | -24.8 | 11.8 | 3.3 | 11.0
O=C(CCCn1c(=S)[nH]c2ccc(Br)cc2c1=O)N1CCN(c2ccccn2)CC1 | 4.1 | 0.6 | 4.2% | -15.8 | 9.5 | ? | nt | nt | nt | nt
Cc1ccccc1N1CCN(S(=O)(=O)c2nnc(NC(=O)c3ccc(F)cc3)s2)CC1 | -16.5 | -0.3 | nt | -11.9 | 11.1 | -0.4 | 2.2 | 1.2 | 16.0 | 1.0
CCO[C@@H]1OC(C(=O)N2CCOCC2)=C[C@H](c2coc3ccccc3c2=O)[C@H]1CCCO | 1.0 | 2.9 | -3.6% | 1.5 | -0.1 | 1.8 | -1.7 | 12.6 | 6.3 | -0.6
CCOCCCNCc1ccc(OCc2ccccc2Cl)cc1 | 33.1 | -1.4 | 5.5% | -7.7 | 0.9 | 1.0 | 1.8 | -41.8 | -66.8 | 5.7
O=C(O)CCc1nnc(SCC(=O)Nc2cccc(C(F)(F)F)c2)[nH]c1=O | -22.2 | 4.1 | 8.8% | -13.2 | -6.9 | 1.3 | nt | nt | nt | nt
CCn1c(=O)n(CC)c2cc(N3CCCC3)c(NC(=O)c3ccc(OC)c(Br)c3)cc21 | 22.9 | 5.9 | nt | 0.2 | 4.7 | 1.1 | 17.4 | -12.4 | -10.8 | 5.0
O=C(CCc1ccccc1)OCC(=O)c1cccc([N+](=O)[O-])c1 | -3.9 | 0.7 | 1.5% | 0.2 | -4.0 | 1.1 | -0.3 | -2.0 | 5.4 | -1.8
Cc1cc(OCC(=O)N2CCN(c3ccccn3)CC2)c(C)cc1Br | 8.6 | -0.6 | -1.1% | 14.5 | -3.7 | -0.4 | -1.5 | -0.5 | -1.8 | -2.6
COc1ccc(S(=O)(=O)N2CCCC2C(=O)NCc2cccs2)cc1 (centres undefined) | -10.5 | -1.3 | ? | 0.6 | 3.9 | -0.2 | nt | nt | nt | nt
Cc1ccc(S(=O)(=O)N2CCN(S(=O)(=O)N3CCOCC3)CC2)c(C)c1 | -4.0 | 2.4 | 3.6% | 4.9 | -3.9 | -0.6 | nt | nt | nt | nt
OC(CSc1ccc(F)cc1)CN1CCN(c2ccccc2)CC1 (centres undefined) | 1.2 | 0.3 | -2.6% | -0.7 | -2.3 | -0.2 | 1.0 | -6.9 | -7.6 | 1.0
CCCCOC(=O)CCc1n[nH]c(=O)[nH]c1=O | -17.2 | -0.3 | -2.0% | -18.7 | 4.4 | 0.6 | nt | nt | nt | nt
C#CCOCCOCCOCCNc1nc(N2CCN(C(=O)[C@H]([C@@H](C)CC)n3cc(CCCN=C(N)N)nn3)CC2)nc(N2CCN(C(=O)[C@H](CCCCN)n3cc(CC(C)O)nn3)CC2)n1 (some centres undefined) | nt | nt | nt | nt | 0.5 | 0.4 | 8.9 | 7.2 | 17.2 | 1.8
Clc1cccc(-c2nc(NCC3CCCO3)c3ccccc3n2)c1 (centres undefined) | 38.9 | -1.3 | -5.1% | 11.9 | -4.4 | -1.1 | -8.4 | -54.2 | -73.8 | -16.1
Cn1c(-c2cc3c(C(F)(F)F)nn(C)c3s2)n[nH]c1=S | -16.5 | -2.8 | 2.3% | 4.5 | -2.6 | -1.0 | nt | nt | nt | nt
O=C(CNC(=S)N(CCCN1CCOCC1)Cc1cccs1)NC1CCCCC1 | 2.1 | 0.2 | nt | 10.2 | -2.3 | 0.2 | 1.7 | -4.9 | 6.9 | 6.7
CCc1nc2ccccc2c2nc3ccccc3n12 | -24.0 | 1.4 | 0.3% | 0.1 | -1.3 | -0.4 | nt | nt | nt | nt
O=[N+]([O-])c1ccc(OCCOc2ccccc2/C=N/n2cnnc2)cc1 | -28.3 | 4.7 | -2.1% | 1.2 | 1.5 | 0.0 | -2.9 | 14.6 | 12.8 | 8.1
CCOC(=O)c1cc(C)n(S(=O)(=O)c2ccc(C)cc2)c1C | -8.1 | 0.5 | 0.9% | 22.1 | -2.2 | -0.1 | nt | nt | nt | nt
N/C(=N\OC(=O)c1ccc(Cl)cc1)c1ccc(Cl)cc1 | -5.7 | 0.2 | -0.3% | 12.0 | -3.9 | -1.0 | nt | nt | nt | nt
Cc1cccnc1NC(=O)C1CCN(S(=O)(=O)c2cccs2)CC1 | -5.7 | 0.2 | -2.0% | -6.3 | 3.2 | -0.3 | nt | nt | nt | nt
COc1ccccc1CNS(=O)(=O)c1c(C)[nH]c(C)c1C(=O)N1CCCC1 | -10.6 | 4.5 | -1.9% | -3.4 | 2.7 | -1.4 | -3.2 | 13.2 | 8.4 | -0.6
CCOC(=O)C(CSCC(=O)c1ccc(Cl)cc1)NC(=O)OC(C)(C)C (centres undefined) | -18.5 | 0.1 | -2.3% | -2.2 | -11.1 | -0.6 | nt | nt | nt | nt
CC(C(=O)c1ccc(-c2ccccc2)cc1)[n+]1cccc(NC(=O)c2ccccc2)c1 (centres undefined) | 3.0 | -21.2 | -7.4% | 57.8 | 6.7 | -0.4 | ? | -51.6 | -80.9 | -17.5
COC(=O)C1=C(C)N(CCCCCC(=O)O)C(=O)NC1c1ccccc1 (centres undefined) | -8.3 | 0.2 | nt | 3.4 | -1.9 | 0.6 | 4.6 | -4.6 | -0.4 | -1.1
O=S(=O)(c1ccc(F)cc1)N1CCN(Cc2cc3c(cc2Br)OCCO3)CC1 | nt | nt | 7.6% | nt | 0.7 | -0.5 | -0.2 | 0.5 | -3.1 | 2.4
CCC(C)(C)NC(=O)C(c1ccccc1Cl)N(C(=O)CCC(=O)Nc1cc(C)on1)C1CC1 (centres undefined) | 1.3 | 3.1 | nt | 11.3 | -2.5 | -0.5 | ? | 2.8 | 12.5 | -0.2
Cc1ccc(OCC(=O)N(Cc2ccc(C)o2)C2CCS(=O)(=O)C2)cc1 (centres undefined) | 31.4 | -1.2 | 0.2% | -4.8 | -1.9 | 1.3 | -0.1 | 4.6 | 2.5 | 1.5
NC(=NCCc1c[nH]c2ccccc12)NS(=O)(=O)c1cc(F)ccc1F | 0.1 | 0.9 | ? | 3.1 | nt | -0.2 | 6.8 | -13.8 | -14.4 | 1.9
CCc1ccccc1N1CSC2=C(C#N)C(c3cc(OC)c(OC)cc3OC)CC(=O)N2C1 (centres undefined) | 8.1 | -111.7 | ? | 9.0 | -3.3 | -0.5 | nt | nt | nt | nt
CCOC(=O)C1=C2SCC(=O)N2C(N)=C(C#N)C1 | -14.6 | 4.8 | -8.3% | -9.5 | -5.7 | -0.5 | nt | nt | nt | nt
COc1ccccc1NC(=O)c1cccc(NC(=O)c2ccco2)c1 | -13.7 | 1.2 | -5.7% | -1.0 | 4.0 | 0.7 | nt | nt | nt | nt
COc1cc(CC(=O)OC2CCOC2=O)cc(OC)c1OC (centres undefined) | -0.9 | -1.3 | -5.1% | -3.3 | -7.1 | 1.5 | nt | nt | nt | nt
O=C(Cc1ccc(F)cc1)OCn1nnc2ccccc2c1=O | -9.4 | -0.6 | nt | -5.8 | -3.7 | 0.2 | 5.4 | 14.1 | 8.5 | 9.1
COc1cccc(/C=N/n2c(N)c(S(=O)(=O)c3cccs3)c3nc4ccccc4nc32)c1OC | 35.3 | 3.4 | -3.2% | -0.6 | 28.1 | 0.1 | nt | nt | nt | nt
COc1ccc(C)cc1NC(=O)C1CCN(S(=O)(=O)c2c(C)noc2C)CC1 | 11.1 | 1.0 | -3.1% | 3.0 | nt | -0.2 | 6.5 | -1.2 | -2.5 | -3.6
COC(=O)c1c(C)[nH]c(C(=O)C(C)OC(=O)c2cnc(C)cn2)c1C (centres undefined) | nt | nt | nt | nt | 1.8 | 0.6 | 1.3 | 2.0 | -1.5 | 1.3
Cc1ccc(NC(=S)Nc2ccccn2)cc1C | -16.6 | -3.1 | 15.5% | -7.2 | 8.8 | 0.0 | -5.6 | 13.5 | 8.9 | -0.8
O=C1CC(N2CCN(c3ccc(S(=O)(=O)N4CCOCC4)cc3)CC2)C(=O)N1Cc1ccccc1 (centres undefined) | 13.0 | -1.8 | -0.9%&2.0% | ? | 1.9 | 0.4 | nt | nt | nt | nt
